Screening results from PubChem.
GLA inh pH 4.5: qHTS Assay for Inhibitors of Human alpha-Galactosidase at pH 4.5 | activity change, negative = inhibition, % at 105 µM | 230,000 tested, under 10 active | AID 1467, 2008 | purified enzyme, 4-MU-alpha-Gal fluorescence, pH 4.5; inconclusive = small, poorly fitted or top-dose-only inhibition, or a rising curve; inactive = flat fitted curve, though single readings scatter; no compound was filed as active;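 note: 0% = full activity with enzyme and -100% = basal without enzyme; dose as in the result columns while the protocol names 77 µM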
miR-21 FLuc: qHTS Assay for Modulators of miRNAs and/orActivators of miR-21; Potency, µM (titrated, usually from 38.3 µM), for the others: at the top dose reporter change, positive = more light; HeLa miR-21 FLuc reporter, luciferase, 48 h; AID 2288, 2010; 340,000 tested, under 10 active; active = well fitted rising curve with a large enough effect; inconclusive = small, poorly fitted or top-dose-only effect; inactive = no such curve, though single readings can be large or run the other way;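 note: % of control where 0% means no effect; miR-21 action dims this reporter so a rising signal means less miR-21 action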
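Compounds were titrated across several concentrations (up to approximately 40 uM) and incubated 48 hours with HeLa miR-21-FLuc reporter cells (miR-21 target sequence downstream of FLuc, endogenous miR-21). Readout was firefly luciferase luminescence after lytic detection reagent.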
Rango dissoc inh: qHTS Assay for Inhibitors of RanGTP induced Rango (Ran-regulated importin-beta cargo) - Importin beta complex dissociation; AID 540253, 2011; Biochemical FRET Rango-importin beta, RanGTP-induced dissociation; Potency, µM (doses to about 46.1 µM), for the others: at the highest dose activity change, negative = inhibition; 340,000 tested, 0.071% active; active means falling FRET ratio curve, often poorly fitted, with flat reads before Ran was added; inconclusive means other falling curves, or compound fluorescence or quenching; inactive means flat or rising ratio curve;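 note: potency is the fitted concentration of half-maximal effect; % of control where 0% means no effect; nearly all actives have a fitted effect of over 45% in size; -100% = wells without RanGTP and RCC1; the record marks most hits as doubtful in a second field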
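Compounds preincubate 5 min with complex of recombinant Rango and importin beta in PBS with 1 mM DTT. Ran (0.6 uM) loaded with 2 mM GTP plus 0.2 uM RCC1 starts dissociation; FRET is recorded 45 min later.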
Rango-impB inh: qHTS Assay for Inhibitors of Rango (Ran-regulated importin-beta cargo) - Importin beta complex formation. Importin subunit beta-1 (Homo sapiens), Q14974. Rango CFP/YFP FRET sensor + importin beta, 45 min. Potency, µM (doses to about 92.2 µM), without a hit: at the top dose inhibition of complex formation. 340,000 tested, 0.031% active. AID 540263, 2011; active = rising FRET ratio curve, often small or poorly fitted; inconclusive = mostly compound fluorescence or quenching in the first reads; inactive = flat curves in all reads;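 note: potency is the fitted concentration of half-maximal effect; 0% = DMSO wells and 100% = buffer wells lacking importin beta; nearly all actives have a fitted effect of over 15% in size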
Target sequence (Q14974 whole entry, looked up): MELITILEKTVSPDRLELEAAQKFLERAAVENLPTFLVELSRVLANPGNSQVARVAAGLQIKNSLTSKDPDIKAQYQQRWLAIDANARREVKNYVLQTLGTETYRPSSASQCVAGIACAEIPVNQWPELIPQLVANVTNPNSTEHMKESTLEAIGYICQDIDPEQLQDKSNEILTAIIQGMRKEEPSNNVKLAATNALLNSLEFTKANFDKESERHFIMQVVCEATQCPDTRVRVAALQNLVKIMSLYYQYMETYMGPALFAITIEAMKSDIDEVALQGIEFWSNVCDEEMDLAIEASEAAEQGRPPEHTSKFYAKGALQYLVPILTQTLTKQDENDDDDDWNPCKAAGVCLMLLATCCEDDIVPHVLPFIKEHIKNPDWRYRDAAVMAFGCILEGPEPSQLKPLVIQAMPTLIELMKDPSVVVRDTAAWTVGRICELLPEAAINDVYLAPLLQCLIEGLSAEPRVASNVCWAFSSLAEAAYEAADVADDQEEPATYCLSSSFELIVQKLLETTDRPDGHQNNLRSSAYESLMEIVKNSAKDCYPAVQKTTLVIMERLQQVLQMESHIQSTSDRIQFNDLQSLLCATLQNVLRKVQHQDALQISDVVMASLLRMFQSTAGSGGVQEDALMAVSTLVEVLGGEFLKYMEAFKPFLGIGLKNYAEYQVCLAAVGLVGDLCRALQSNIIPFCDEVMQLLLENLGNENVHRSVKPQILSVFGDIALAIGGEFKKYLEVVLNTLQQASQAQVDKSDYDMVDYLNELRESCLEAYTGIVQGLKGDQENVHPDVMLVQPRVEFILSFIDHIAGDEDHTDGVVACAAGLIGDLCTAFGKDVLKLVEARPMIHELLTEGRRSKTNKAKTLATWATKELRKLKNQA
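Inhibition scored from the CFP 486 nm/YFP 530 nm FRET ratio 45 min after adding 0.125 microM importin beta to 50 nM Rango biosensor preincubated 5 min with compound (room temperature, PBS with DTT, Tween-20, BSA). No-importin wells as positive control.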
The depositor's hits bear a star; ? = inconclusive; · = not tested or not shown; & = joins results of further samples.

SMILES	GLA inh pH 4.5	miR-21 FLuc	Rango dissoc inh	Rango-impB inh
COc1ccccc1CNCC(=O)Nc1cc(S(=O)(=O)N2CCCCC2)ccc1C	·	·	-12.9%	0.1%
O=C(O)/C=C(/c1ccccc1)C(F)(F)F	·	·	43.6%	0.3%
CCCNC(=O)CC(NS(=O)(=O)c1ccc(Cl)cc1)c1ccco1 (stereo unspecified)	-5.0	-1.7%	0.1%	0.1%
O=C(NCC1CCCO1)c1cc(NS(=O)(=O)c2cccs2)cc(NS(=O)(=O)c2cccs2)c1 (stereo unspecified)	-7.7	-0.5%	-1.1%	0.7%
Cc1ccc(C(=O)c2ccccc2C(=O)OCC(=O)NCCc2ccccc2)cc1	4.2	-1.4%	0.5%	-1.6%
O=C1NC2(CCCCCC2)C(=O)N1Cc1ccc([N+](=O)[O-])cc1	-8.6	-5.8%	-10.4%	-2.8%
CCc1ccc(OCC2NCCc3cc(OC)c(OC)cc32)cc1 (stereo unspecified)	·	-19.6%	4.9%	1.4%
O=C(Nc1ccc2c(c1)OCO2)C1COc2ccccc2O1 (stereo unspecified)	-3.4	-54.7%	-8.4%	-0.4%
NC(=O)NC(c1ccc(Cl)cc1)c1ccccc1Cl (stereo unspecified)	-2.9	-14.2%	5.1%	0.8%
COc1ccc(/C=N/NC(=O)c2ccncc2)c(OC)c1	·	-3.5%	3.4%	3.6%
O=C(Cc1ccc(F)cc1)NCCc1cnc[nH]1	·	-0.2%	4.6%	0.6%
O=C(c1cccc(NS(=O)(=O)c2ccc(Br)cc2)c1)N1CCCCC1	·	·	-1.1%	3.2%
COc1cc(/C=N\NC(=O)c2nonc2N)c(OC)cc1Br	12.0	4.1%	-17.4%	-2.6%
Cc1ccc(CS/C(Nc2ccccc2C)=C(\C#N)C(N)=O)c(C)c1	1.0	3.0%	1.1%	0.0%
CCC(C)(C)NC(=O)CN(Cc1ccc2c(c1)OCO2)C(=O)CCC(=O)Nc1nccs1	2.4	-0.9%	-2.4%	2.1%
CC1(C)Cc2c(sc(NC(=O)C(=O)NCCCN3CCOCC3)c2C#N)CO1	·	0.6%	-12.1%	-4.0%
CC(C)c1cccc(C(C)C)c1OCCCCCN1CCOCC1	·	·	-1.3%	3.0%
Cc1nc(SCc2ccccc2)nc2c1CCC2	4.4	-83.5%	18.2%	4.0%
CCOc1ccccc1NC(=O)N1CCCN(c2ncccc2C#N)CC1	·	-14.5%	-13.3%	0.1%
O=C(CN1C2CCC1CC(NC(=O)NC1CCCCC1)C2)NC1CC1 (stereo unspecified)	-0.5	-8.7%	11.6%	0.4%
Cc1cccc(-n2nc([N+](=O)[O-])c(=NCc3cccnc3)n2O)c1	-4.6	-13.3%	-2.4%	-0.3%
O=C(NCc1ccccc1)NC(=O)c1ccncc1	?	-3.7%	-8.9%	-2.9%
OC(CCN1CCCCC1)(c1ccccc1)C1C[C@@H]2C=C[C@H]1C2 (stereo partly specified)	·	·	-2.6%	2.4%
CCOC(=O)c1c(NC(=O)c2ccc(-n3cnnn3)cc2)sc2c1CCCC2	-2.2	-3.9%	20.6µM*	-7.4%
O=C(N/N=C/c1ccc(O)cc1)c1cncc(Br)c1	·	-2.1%	2.5%	-0.4%
Additional structures:
SMILES	GLA inh pH 4.5	miR-21 FLuc	Rango dissoc inh	Rango-impB inh
CC(C)(C)S(=O)(=O)c1cnc(N2CCCCC2)nc1N	-0.7	-22.1%	1.4%	2.8%
COc1ccc(-c2csc(NC(=O)CCN3C(=O)C4CC=CCC4C3=O)n2)cc1OC (stereo unspecified)	·	·	-4.9%	3.0%
CCc1ccc(C(O)(CNCc2ccccc2)c2ccccc2)cc1 (stereo unspecified)	·	-0.8%	10.0%	-0.3%
COc1ccc(N2C(=O)CC(Nc3cccc([N+](=O)[O-])c3)C2=O)cc1 (stereo unspecified)	-0.2	-19.5%	0.0%	2.9%
CCCCC(=O)Nc1ccc(NC(=S)NC(=O)c2cccs2)cc1OC	-1.7	-11.5%	11.6%	3.3%
Cc1[nH]c2ccccc2c1SCCN	·	·	-3.5%	2.9%
Cc1ccc(NC(=O)CC2Nc3ccccc3NC2=O)cc1Cl (stereo unspecified)	-7.6	1.5%	?	?
C[C@H](O)[C@@]1(O)CC[C@H]2[C@@H]3CC[C@@H]4C[C@H](O)CC[C@]4(C)[C@H]3CC[C@@]21C	·	·	4.4%	-2.7%
Cc1ccccc1N(C(=O)c1snc(C(N)=O)c1N)C(C(=O)NC1CCCCC1)c1ccc(O)cc1 (stereo unspecified)	·	9.3%	?	-2.7%
COCCn1c(NCc2ccccc2)nc2c1c(=O)[nH]c(=O)n2C	-10.4	-24.2%	9.1%	5.4%
CCOc1ccc(NC(=O)c2ccc(F)c(S(=O)(=O)N3CCN(c4ccccn4)CC3)c2)cc1	-2.9	23.3%	-15.5%	-1.0%
Cc1cccc(CSCCNC(=O)COc2ccc(Cl)cc2)c1	4.2	-5.2%	-10.7%	-3.8%
CCc1nn(CCCC(=O)NCc2ccco2)c(=O)c2cc3occc3n12	·	-25.2%	-2.1%	9.1%
CCOC(=O)c1c(NC(=O)c2cccnc2)sc(C(C)=O)c1C	1.6	-0.6%	-9.7%	-1.7%
CCCCc1ccc(S(=O)(=O)NCCc2ccncc2)cc1	-8.4	11.5%	13.3%	1.6%
CSc1cccc(CN2CCN(CCc3ccccc3)C(CCO)C2)c1 (stereo unspecified)	-2.5	-2.4%	41.8%	-0.7%
Cc1cccc2cc(C#N)c(N3CCC(O)CC3)nc12	15.2	0.1%	?	?
O=C(O)[C@H](Cc1c[nH]c2ccccc12)Nc1ncccc1[N+](=O)[O-]	·	-1.1%	-14.1%	0.2%
CCCc1cc(C(=O)Nc2ccc(F)cc2F)no1	-5.3	-44.9%	1.2%	-1.3%
Cc1ccc(OCC(=O)N(C)CC(=O)Nc2ccc(Cl)c(C(F)(F)F)c2)c([N+](=O)[O-])n1	·	·	-5.1%	-2.0%
O=C(c1ccccc1CCc1ccccc1)N1CCCC1	·	0.6%	-6.9%	-0.3%
C[n+]1ccc(C(=O)NCc2ccccc2)cc1	·	-1.2%	-7.9%	2.0%
CC1(C)CC(=O)C2=C(C1)c1c(ccc3ccccc13)NC2c1cc([N+](=O)[O-])cc([N+](=O)[O-])c1O (stereo unspecified)	-6.3	20.9%	14.0%	-1.5%
O=C(COc1coc(CN2CCc3ccccc3C2)cc1=O)Nc1ccccc1F	·	·	0.0%	?
CCCn1c(SCC(=O)NCc2ccc(F)cc2)n[nH]c1=O	-0.8	0.0%	-22.0%	3.1%

Sorted by the number under miR-21 FLuc (highest first): three of the compounds above
Molecule	miR-21 FLuc
CC1(C)CC(=O)C2=C(C1)c1c(ccc3ccccc13)NC2c1cc([N+](=O)[O-])cc([N+](=O)[O-])c1O (stereo unspecified)	20.9%
C[n+]1ccc(C(=O)NCc2ccccc2)cc1	-1.2%
COCCn1c(NCc2ccccc2)nc2c1c(=O)[nH]c(=O)n2C	-24.2%

(continued)
SMILES	GLA inh pH 4.5	miR-21 FLuc	Rango dissoc inh	Rango-impB inh
COc1ccc(C)cc1C(=O)CCC(=O)N1CCN(c2ccccc2F)CC1	·	·	-3.1%	3.8%
COC(=O)Cc1ccc(Oc2ncc(C(F)(F)F)cc2Cl)cc1	-6.8	0.8%	8.2%	1.0%
CCCS(=O)(=O)N1CCC(C(=O)c2cccc(C(F)(F)F)c2)CC1	1.7	4.4%	-14.3%	1.4%
COc1ccc(C(=O)CC2SC(N)=NC2=O)cc1 (stereo unspecified)	2.1	-2.1%	-3.7%	1.0%
O=C(CSc1nc2c(c(=O)n1-c1ccc(F)cc1)SCC2)Nc1ccc2c(c1)OCO2	·	·	-12.8%	0.6%
CCOC(=O)CSc1nc2c(cnn2-c2ccc(F)cc2)c(=O)[nH]1	·	-6.1%	5.6%	-0.4%
Cc1ccc(-c2csc(NC(=O)c3cccc(S(=O)(=O)N4CCN(C)CC4)c3)n2)cc1	-2.4	?	13.0%	0.2%
COC(=O)[C@]1(C)N[C@H](CN(C)S(=O)(=O)c2ccc(C(C)(C)C)cc2)[C@@H]2C(=O)N(C)C(=O)[C@@H]21	·	·	2.4%	4.9%
Cc1ccc(CS(=O)Cc2ccc(C(=O)NC3CCCCC3)o2)cc1 (stereo unspecified)	·	-0.5%	2.8%	1.6%
COc1ccc(-n2cnnc2SCC(=O)c2cc(C)n(Cc3cccs3)c2C)cc1	5.3	-13.9%	-5.6%	-2.7%
O=C(NCc1ccco1)c1cc(-c2ccc(Cl)cc2)on1	0.6	-27.2%	7.7%	-1.5%
O=C(Cc1ccc(Cl)cc1)OCc1nnc(-c2ccccc2)o1	-2.5	-3.0%	-4.8%	1.0%
Cc1cccn2c(=O)c3cc(S(=O)(=O)c4ccc(Br)cc4)c(=N)n(C4CCCCC4)c3nc12	·	-3.4%	-6.6%	-5.4%
O=C(COC(=O)c1ccc(Cl)c(S(=O)(=O)N2CCOCC2)c1)Nc1ccc2[nH]c(=O)[nH]c2c1	·	·	8.4%	-0.2%
COc1ccc(CNC(=O)CSc2nn3c(=O)c(C(C)(C)C)nnc3s2)cc1OC	-2.1	-27.2%	-2.0%	-0.6%
CCN(CC(=O)Nc1c(F)cccc1F)C(=O)CSCC(=O)Nc1ccc(OC)cc1	·	·	-10.6%	1.3%
CCNC(=O)Nn1c(-c2ccccc2)nc2ccccc2c1=O	3.7	1.9%	-12.3%	-4.2%
CCN(CC)C(=O)[C@H]1C[C@H](CC(=O)NCCCN(C)C)C(=O)N2CCc3c([nH]c4cc(-c5ccco5)ccc34)[C@]12C	·	·	-1.4%	1.7%
CCCCn1c(N)c(N(C(=O)CSc2nnc(C)n2-c2ccccc2)C2CCCC2)c(=O)[nH]c1=O	·	·	20.8%	-0.3%
CCCCN(CC)S(=O)(=O)N1CCC(C(=O)NCc2ccc(F)cc2)CC1	-1.0	7.7%	0.4%	0.7%
COc1ccc([N+](=O)[O-])cc1NS(=O)(=O)Cc1ccccc1	·	-3.6%	-4.6%	-2.2%
COCCNC(=O)c1ccccc1N(Cc1ccccc1)S(=O)(=O)c1ccccc1	·	·	2.5%	-0.7%
CC1=CC=CC2=NC(=O)CC(C)(C(=O)N(CC(=O)NC3CCCC3)c3ccccc3C)N12 (stereo unspecified)	?	0.0%	7.1%	-1.8%
COc1ccc(CN2CCn3nc(C(=O)NC4CC4)cc3C2=O)cc1	0.5	-9.1%	14.7%	-2.4%
Cc1c(C(=O)OC(C)C)sc(N)c1C(=O)OC(C)C	1.1	-69.8%	-14.0%	0.6%
Later entries:
SMILES	GLA inh pH 4.5	miR-21 FLuc	Rango dissoc inh	Rango-impB inh
O=C(CC12CC3CC(CC(C3)C1)C2)Nc1ccc2c(c1)COC2=O	0.7	-6.0%	-1.9%	-0.8%
O=S1(=O)NC2c3ccccc3CC2O1 (stereo unspecified)	·	-7.2%	5.2%	0.2%
CCOC(=O)CCC(=O)N1CCOCCOCCN(C(=O)CCC(=O)OCC)CCOCC1	-10.7	4.3%	-5.7%	-0.3%
Cc1cccnc1NC(=O)CSc1nnc(CNC(=O)c2cccc([N+](=O)[O-])c2)n1C	·	0.0%	2.3%	-2.1%
CS(=O)(=O)NNC(=O)Cn1nnc(-c2ccc(OCc3ccccc3Cl)cc2)n1	·	·	10.8%	-0.1%
O=C(O)[C@@H]1Cc2c([nH]c3ccccc23)C2CCC(=O)N21 (stereo partly specified)	·	-0.3%	?	?
CC1C/C(=N\NC(N)=S)c2cc(Cl)ccc2S1 (stereo unspecified)	12.0	23.5%	-3.5%	-1.9%
O=C(O)Cn1c(SCCOc2ccccc2)nc2ccccc21	6.9	-2.5%	4.0%	-2.1%
CNC(=O)NC1CCCCc2sccc21 (stereo unspecified)	9.1	-1.0%	6.3%	-5.7%
Cc1ccc(CNC(=O)[C@H]2C[C@@H]2[C@H](NP(=O)(c2ccccc2)c2ccccc2)c2ccccc2)o1	-2.2&5.2	1.0%	-3.4%	2.9%
Cc1cccc(-n2ncc3c(=O)[nH]c(SCC(=O)NCCC4=CCCCC4)nc32)c1	·	·	19.7%	-0.7%
CCOC(=O)c1nc(NNC(=O)c2ccc([N+](=O)[O-])cc2)sc1C	·	25.8%	5.6%	2.6%

This is a subset (hit frequency here may not be typical).
